PrP UTR inh – inhibition of PrP 5' UTR reporter expression | cell-based PrP 5' UTR mRNA reporter, plate reader | inhibition, % (no concentration beside the values) | 340,000 compounds, 0.35% hits | AID 488862, 2010;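 active means every replicate at 50% or more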;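 further: 0 = median of the neutral control wells; tested in H4 reporter cells; numbers are from one replicate; inactives centre near -14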
Mtb hypoxia rep – PubChem AID 1159583. M. tuberculosis hypoxia-regulated fluorescent reporter, fluorescence. fluorescence inhibition, % (test concentration not listed). 300,000 compounds, 0.1% hits;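 active means 35 to 45% if threefold the growth effect, above 45% if 1.5-fold the growth effect; inactive means the rest, general growth blockers included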;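 further: wells of about 50 µL received 100 nL stock; 0% = vehicle wells and 100% = reference inhibitor wells; whole bacteria with a GFP reporter of the hypoxia response; strong numbers were not always called active; many hits fall short of the cut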
ugtP null kill – growth inhibition of ugtP-null S. aureus, primary screen, RN4220 ugtP deletion, OD600 | 16 h; some inactives read as strong as hits | growth inhibition, % (test concentration not listed) | 330,000 compounds, 0.54% hits;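 active means z-score under -3 and OD600 up to 0.15 on both plates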;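 further: plate controls were untreated wells for no effect and antibiotic for full effect; wells of about 80 µL received 100 nL stock; the first replicate is given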
Autofluor counter – compound fluorescence in toxin protease inhibitor counterscreen | compound autofluorescence counterscreen, microsphere flow cytometry; active compounds read high | fluorescence intensity (test concentration not listed) | 360,000 compounds, 3.1% hits;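 active means at least 3 SD above the mean of all compounds, about 16000 in these data; inconclusive means too few beads counted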;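 further: 100 nL of 1 mM stock went into each well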
Sa RN4220 lethal – growth inhibition of S. aureus RN4220, primary screen, OD600 | 330,000 compounds, 0.33% hits | AID 1259311, 2017 | inhibition, % (test concentration not listed) | 16 h;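 active means z-score of -3 or lower and OD600 up to 0.18 on both plates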;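 further: plate controls were untreated cells for no effect and reference antibiotic for full effect; stock transfer was 100 nL into about 80 µL; one replicate is shown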
BJeLR viability – MLPCN primary cell-based screen for lethality selective to Ras in HRASV12 cells | BJeLR (HRASV12) viability, CellTiter-Glo ATP luminescence, 48 h; reference of the scale not given here | inhibition, % (no concentration beside the values) | 300,000 compounds, 0.17% hits;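 active means replicate mean above 50%; inconclusive means above 50% but judged a plate artefact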;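 further: 50 nL library stock added to about 25 µL; numbers are from one replicate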
Mtb hypoxia rep growth – second read-out of Mtb hypoxia rep, no call of its own (marks repeat the call); growth inhibition, %; measured here: M. tuberculosis growth (absorbance);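 0% = vehicle and 100% = reference antibiotic; read after six days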
* marks the source's active call; other numbers are inactive results; ? = inconclusive; . = not tested or not shown. The order is random, and some 4% of all compounds hit somewhere here.

SMILES	PrP UTR inh	Mtb hypoxia rep	Mtb hypoxia rep growth	ugtP null kill	Autofluor counter	Sa RN4220 lethal	BJeLR viability
Cc1ccc(C(=O)c2ccccc2C(=O)O)cc1C	-28	6	13	5	3853	8.9	4
CCNc1ccc(C(=O)OCC(=O)NC(=O)NCC(C)C)cc1[N+](=O)[O-]	1	0	8	5	4478	1.2	4
O=C(NCCOc1ccccc1)C1CCC(=O)N(CCCN2CCCC2=O)C1 (configuration not stated)	-10	12	-28	-7	.	-0.6	-4
CC=CC(=O)OCC(=O)Nc1ccc(C)c(S(=O)(=O)N(C)C)c1	.	-3	12	-4	.	1.0	.
CCCCCn1c(=O)[nH]c2cc(C(=O)NCCN3CCOCC3)ccc2c1=O	-16	10	9	-1	3823	0.7	.
c1ccc(COCCN2CCN(CCOCc3ccccc3)CC2)cc1	-18	8	5	7	16853*	0.0	7
OCCNC1=NCCN1	-6	.	.	0	4224	4.0	2
N=C1C(=O)OCC1c1cc(Cl)ccc1NC(=O)Nc1ccccc1 (configuration not stated)	-25	15	13	-3	5752	-0.6	5
COc1cccc(CN(C)C(=O)c2cccc(OCc3ccccc3)c2)c1	-15	-1	-5	13	3667	2.6	3
CC1CCCCC1NC(=O)CSc1nnc(-c2ccncc2)n1CCCN(C)C (configuration not stated)	-34	3	0	2	4236	1.7	3
O=C(NCCCN1CCOCC1)c1c(-c2ccccc2)sc2ccccc12	5	2	-1	3	3791	2.8	.
COc1ccc(NS(=O)(=O)c2cc(NC(=O)/C=C/c3cc(OC)c(OC)c(OC)c3)ccc2N2CCCCC2)cc1	-18	-10	0	-7	2304	-1.4	-9
COc1cccc(NC(=O)N2CCC(C(N)=O)(N3CCCCC3)CC2)c1	3	-5	7	0	2753	9.2	-9
COc1ccccc1NC(=O)c1cc2ccccc2o/c1=N\O	-78	.	.	.	2995	.	0
CC(=O)c1ccc(N2CCN(C(=O)c3ccc(NC(=O)C4CCCO4)cc3)CC2)cc1 (configuration not stated)	-45	7	11	2	4384	4.1	2
CCc1nn(CC(=O)NCCCN2CCOCC2)c(=O)c2cc3sccc3n12	0	1	4	3	6095	2.9	15
O=C(N/N=C/c1ccc(Cl)cc1Cl)C(=O)NC1CC1	-37	.	.	.	4561	.	9
CCOc1ccc(C2=Nn3c(nnc3-c3ccccc3OC)SC2)cc1	69*	11	4	-6	22729*	3.0	50
Cc1ccc(NC(=O)C(C)N2CCc3ccccc3C2)cc1 (configuration not stated)	10	-12	-4	-3	4338	1.2	-5
Cc1cccc2cc(-c3ccccc3)c(-c3ccccc3)c[n+]12	-43	9	22	0	5605	1.6	3

Of the compounds above, two contain a Cl atom:
SMILES	PrP UTR inh	Mtb hypoxia rep	Mtb hypoxia rep growth	ugtP null kill	Autofluor counter	Sa RN4220 lethal	BJeLR viability
N=C1C(=O)OCC1c1cc(Cl)ccc1NC(=O)Nc1ccccc1 (configuration not stated)	-25	15	13	-3	5752	-0.6	5
O=C(N/N=C/c1ccc(Cl)cc1Cl)C(=O)NC1CC1	-37	.	.	.	4561	.	9

Next records follow.
SMILES	PrP UTR inh	Mtb hypoxia rep	Mtb hypoxia rep growth	ugtP null kill	Autofluor counter	Sa RN4220 lethal	BJeLR viability
O=C(COC(=O)CNC(=O)c1ccc(Cl)cc1Cl)Nc1ccc(N2CCOCC2)cc1	-16	6	4	-1	4194	1.8	-3
CC1(C)C(=O)OC(C(=O)c2ccc(C(C)(C)C)cc2)C(C)(C)C1=O (configuration not stated)	-21	.	.	-1	2858	2.8	4
Cc1ccc(-n2nnnc2SC(C)C(=O)NCC(=O)Nc2ccc(F)c(F)c2F)c(C)c1 (configuration not stated)	-27	8	4	11	2124	0.8	-5
COc1ccc2nc(N=Nc3ccc(N(C)C)cc3)sc2c1	-45	12	-1	-4	3502	-1.7	.
CC(C)c1ccc2[nH]c3c(c2c1)CCC/C3=N\NC(=O)c1ccncc1	-22	.	.	.	4488	.	4
O=C(c1cccs1)c1ccccc1Cc1cccs1	-18	13	10	17	3684	7.3	.
CCN(CC)C(=O)c1sc(NC(=O)C(C)C)c(C#N)c1C	10	17	9	9	4445	6.5	-11
CC(CN1CCCC1)OC(=O)c1ccc(Br)cc1 (configuration not stated)	-23	13	-1	-1	3665	1.0	-10
CC1CC(C)CN(CCCNC(=O)c2csc3c2CCCCC3)C1 (configuration not stated)	-23	4	3	-2	5263	2.7	-17
CCc1cccc(CC)c1NC(=S)NC(C)c1ccccc1 (configuration not stated)	-6	-10	-21	10	2476	3.7	-8
CCC1CCCCN1CCCNC(=O)CN1C(=O)COc2ccccc21 (configuration not stated)	-16	4	1	6	5077	3.6	-3
Cc1ccccc1C=NNC(=O)Cc1ccc(Cl)cc1	.	9	16	-4	.	-2.8	.
CC1CN(C(=O)c2ccc(N3CCCCC3)c([N+](=O)[O-])c2)CC(C)O1 (configuration not stated)	-15	-1	-4	0	10479	8.9	2
Cc1cccc(NC(=O)CSc2nnc([C@@H](N)Cc3c[nH]c4ccccc34)o2)c1C	-14	4	2	-2	23387*	0.5	9
COc1ccc(C2=C(SC)CC2=NC(C)(C)C)cc1	-5	1	-3	5	2160	5.1	5
C[C@@]12C(=O)N(Cc3ccccc3)CC(=O)N1[C@H](/C=C/c1ccccc1)[C@@H]1C(=O)N(c3ccccc3)C(=O)[C@@H]12	-12	-4	1	-1	.	0.3	-2
O=C1CC2C(=O)NCCN2C(=NC(=O)c2ccc(Cl)cc2)N1 (configuration not stated)	-24	16	2	-64	3912	6.3	4
CCCCC(=O)Nc1ccc2c(c1)nc(CCN1CCN(c3ccccn3)CC1)n2C	-6	5	5	3	3659	3.2	-8
COc1ccc2cc(CCNC(=O)C3CCCC3)c(=O)[nH]c2c1	2	14	11	7	5780	0.1	1
Oc1c(Cl)cc(Cl)c(Cl)c1Cc1c(O)c(Cl)cc(Cl)c1Cl	3	.	.	.	5862	.	0
CCOC(=O)c1c(/N=C/C2=C(O)CC(C)(C)CC2=O)sc(C)c1C	-26	.	.	.	8946	.	4
CN(C)c1ccc(NC(=O)CSc2nc3c(c(=O)[nH]2)CCCC3)cc1	-14	7	11	-14	10776	10	7
O=C(CSc1ncnc2sccc12)Nc1ccc(S(=O)(=O)N2CCOCC2)cc1	-3	-2	0	0	?	2.4	.
COc1ccc(S(=O)(=O)N(C)c2ccc(C(=O)N3CCCCC3)cc2)cc1OC	-5	14	9	0	5039	4.8	13
O=C(CCSCc1cccc(Cl)c1)NCCC1=CCCCC1	-3	17	7	7	3752	0.3	-11
O=C(NN1CCOCC1)c1ccc(Cl)c([N+](=O)[O-])c1	-21	13	4	14	5847	1.6	3
C#CCOCCOCCOCCNc1nc(N2CCN(C(=O)Cn3cc(CCCCN)nn3)CC2)nc(N2CCN(C(=O)Cn3cc(CCCCN)nn3)CC2)n1	-23	8	-1	-8	3935	-13	-7
Cc1cc(NC(=O)c2noc3c2CCCC3)no1	-19	2	11	5	21619*	2.7	3
COc1ccc(S(=O)(=O)N2CCN(C(=O)c3c(-c4ccccc4)noc3C)CC2)cc1	-21	.	.	9	5063	2.2	5
Cc1cc(C)c(C(=O)COC(=O)c2c(C)noc2C)cc1C	-26	2	3	11	2961	9.3	.
CCOC(=O)C1=C(O)/C(=C/c2cc(OC)c(OC)c(OC)c2)N=C1C	-15	.	.	.	3286	.	-1
COC(=O)c1cn(CCOc2ccccc2)c2ccccc12	-39	.	.	-7	2520	2.5	-2
CCn1c(SCC(=O)NN=Cc2ccc(C)o2)nnc1-c1ccccc1	.	-1	1	-1	.	1.9	.
COc1ccc(CNC(=O)CS(=O)Cc2nc(-c3ccccc3C)oc2C)cc1 (configuration not stated)	-11	-4	9	-5	6645	-11	-6
O=C(Nc1cccc2ccccc12)c1cc2c(cc1Br)OCO2	-14	.	.	.	3155	.	-4
COc1ccc(NC(=O)c2ccc(S(=O)(=O)N3CCCCCC3)cc2)c(OC)c1	-2	9	10	11	4472	6.7	-2
Nc1cc(=O)[nH]c(SCC(=O)Nc2ccc(N3CCOCC3)cc2)n1	-2	1	5	1	3643	1.6	.
COC(=O)c1ccc(C2c3c(oc4ccc(Cl)cc4c3=O)C(=O)N2CCN2CCOCC2)cc1 (configuration not stated)	0	2	2	9	3228	-0.8	0
COc1ccc(C=NNC(=O)CC(=O)NCc2cccnc2)cc1[N+](=O)[O-]	.	-2	-2	-1	.	0.7	.
Cn1c(=O)n(C)c2cc(NC(=O)CSc3ccccc3)ccc21	9	-3	-4	1	?	-2.7	-5
CC(=O)N1CCc2c(sc(NC(=O)Cc3ccc(F)cc3)c2C(N)=O)C1	-2	0	-8	11	4218	6.4	9
CCS(=O)(=O)C(=C(Nc1ccc(OC)cc1)Nc1ccc(OC)cc1)S(=O)(=O)CC	-14	4	7	0	22992*	3.7	-1
Cc1ccc(OCCNC(=O)Cc2ccc(S(=O)(=O)N3CCOCC3)s2)cc1	-22	-9	-12	2	7091	2.8	-17
NS(=O)(=O)c1ccc(Cl)cc1[N+](=O)[O-]	-29	0	-2	-3	3689	16	13
NC(=O)C1=C[C@H](c2ccccc2)C[C@H](OCc2ccc(CO)cc2)O1	-36	.	.	.	4208	.	-3
CSc1ccccc1NC(=O)CSc1nnc(Cc2ccccc2)o1	-12	0	5	3	5502	0.5	4
CCc1ccc(NC(=O)CCCN2C(=S)NC(C)(C)CC2C)cc1 (configuration not stated)	-10	11	0	7	4276	16	-13
CC1CC(C)CN(C(=O)Cn2nnc(-c3ccccc3)n2)C1 (configuration not stated)	-12	4	14	5	3608	5.8	0
Cc1nc2cc(NC(=O)Nc3nccs3)ccc2n1C	-59	-1	-8	2	4357	1.4	-13
O=S(=O)(c1ccccc1)c1nc(-c2ccccc2Cl)oc1NCCN1CCOCC1	-25	7	2	4	11511	5.4	3
N/C(=N\[N+](=O)[O-])N/N=C/c1ccc(O)cc1	-21	.	.	.	11277	.	17
Cc1ccc(-n2nnnc2SCC(=O)Nc2ncc(Cc3ccccc3Cl)s2)cc1	2	.	.	.	2406	.	-11
Cc1ccc(C(=O)NNC(=O)C2CCN(c3ncccn3)CC2)cc1	1	3	6	8	5047	4.3	7
Cc1ccccc1NCC(=O)N/N=C\c1ccc2c(c1)OCO2	-17	.	.	.	2597	.	0
Cc1ccc(C)c(NC(=O)Cn2cc(C(=O)C3CC3)c3ccccc32)c1	-25	4	21	-2	6140	1.8	-6
CCCCn1c(N)c(N(CCOC)C(=O)CCNC(=O)NC23CC4CC(CC(C4)C2)C3)c(=O)[nH]c1=O	-16	6	12	6	5482	3.1	.
Brc1ccccc1/C=N/Nc1ccc2ccccc2n1	-101	.	.	.	2062	.	-2
CC[C@]12c3[nH]c4ccccc4c3CCN1C(=O)C(CC(=O)NCc1cccc(C(F)(F)F)c1)C[C@@H]2C(=O)N1CCN(C(=O)C2CC2)CC1 (some centres not stated)	-7	8	3	4	4816	-8.1	.
CC(C)(C)NC(=O)COC(=O)c1ccccc1Oc1ccccc1	-6	11	1	8	4600	10	0
Cc1nn(-c2ccccc2)c(Cl)c1C(=O)Nc1nnc(C2CCCC2)s1	-5	4	1	-6	4516	2.1	1
Remaining list, next part
SMILES	PrP UTR inh	Mtb hypoxia rep	Mtb hypoxia rep growth	ugtP null kill	Autofluor counter	Sa RN4220 lethal	BJeLR viability
COCc1c(C(=O)OCC(=O)c2c(N)n(CC(C)C)c(=O)n(C)c2=O)oc2ccccc12	-14	3	8	-4	4168	0.8	6
COc1ccc(NS(=O)(=O)c2ccc(N3CCOCC3)c(NC(=O)c3ccc(F)cc3)c2)cc1	-11	4	11	-5	7796	4.1	5
Cc1cccc(/C=N/NC(=O)c2cc(-c3cccnc3)nc3c2c(C)nn3-c2ccccc2)c1	0	.	.	.	10010	.	4
COc1cccc(C(=O)N/N=C/c2ccc(Oc3ccc([N+](=O)[O-])cn3)c(OC)c2)c1	-16	.	.	.	2573	.	2
CCC(=O)c1c(CC)c2n3c1CCC3CCC2 (configuration not stated)	.	22	8	6	.	7.6	.

Pulled by structure from the entries so far, two records:
SMILES	PrP UTR inh	Mtb hypoxia rep	Mtb hypoxia rep growth	ugtP null kill	Autofluor counter	Sa RN4220 lethal	BJeLR viability
c1ccc(COCCN2CCN(CCOCc3ccccc3)CC2)cc1	-18	8	5	7	16853*	0.0	7
CCC(=O)c1c(CC)c2n3c1CCC3CCC2 (configuration not stated)	.	22	8	6	.	7.6	.

From PubChem
